FGF22 binding – shifts melting point of recombinant human FGF22; calls only at 9.99 µM; Q9HCT0; AID 651658; actives 1.5% (n = 340,000); recombinant FGF22 thermal shift, SYPRO orange fluorescence; percent of sucrose octasulfate shift, DMSO zero;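 active = melting point raised past a set limit in the mean and every replicate; inconclusive = no clear call; three in four hits are not shown here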
Target sequence (Q9HCT0 whole entry, looked up): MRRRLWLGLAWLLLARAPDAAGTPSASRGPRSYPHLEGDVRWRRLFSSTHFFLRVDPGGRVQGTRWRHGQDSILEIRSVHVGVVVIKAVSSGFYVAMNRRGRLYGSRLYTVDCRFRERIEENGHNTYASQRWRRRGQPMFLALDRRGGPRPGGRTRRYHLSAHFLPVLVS
Vif TR-FRET – HIV-1 Vif–A3G interaction blockers – biochemical, TR-FRET, GST-Vif 1-94, biotin-A3G peptide, dose response retest, primary screen (AID 1117319) | TR-FRET GST-Vif / biotin-A3G peptide binding; higher % means a stronger effect; test concentration not given here; strong numbers were not always called active | inhibition, %; hits with a dose series show IC50 in µM | actives 0.57% (n = 260,000);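 active = above the screen mean plus three standard deviations and confirmed in dose response; inconclusive = results disagree or hit not tested in dose response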;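 note: Vif residues 1-94 fused to GST binding biotinylated APOBEC3G peptide 110-148; 0% = full assay without inhibitor and 100% = GST in place of GST-Vif; retest series ran down from 100 µM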
AF4-AF9 inh – inhibitors of human MLL-AF4/AF9 interaction; P42568; AlphaScreen, biotin-AF4 peptide binding to FLAG-AF9; inhibition, % at 10 µM; actives 0.47% (n = 350,000); AID 651704;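 active = every replicate reaching a set inhibition limit, whatever the replicate mean, cut at about 25% in these data; inconclusive = mean inhibition reaches that limit but some replicates miss it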;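 note: 0% = plate neutral control median and 100% = total signal loss; the record names both 10 and 1 µM as test concentration; the first replicate is given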
Target sequence (P42568 whole entry, looked up): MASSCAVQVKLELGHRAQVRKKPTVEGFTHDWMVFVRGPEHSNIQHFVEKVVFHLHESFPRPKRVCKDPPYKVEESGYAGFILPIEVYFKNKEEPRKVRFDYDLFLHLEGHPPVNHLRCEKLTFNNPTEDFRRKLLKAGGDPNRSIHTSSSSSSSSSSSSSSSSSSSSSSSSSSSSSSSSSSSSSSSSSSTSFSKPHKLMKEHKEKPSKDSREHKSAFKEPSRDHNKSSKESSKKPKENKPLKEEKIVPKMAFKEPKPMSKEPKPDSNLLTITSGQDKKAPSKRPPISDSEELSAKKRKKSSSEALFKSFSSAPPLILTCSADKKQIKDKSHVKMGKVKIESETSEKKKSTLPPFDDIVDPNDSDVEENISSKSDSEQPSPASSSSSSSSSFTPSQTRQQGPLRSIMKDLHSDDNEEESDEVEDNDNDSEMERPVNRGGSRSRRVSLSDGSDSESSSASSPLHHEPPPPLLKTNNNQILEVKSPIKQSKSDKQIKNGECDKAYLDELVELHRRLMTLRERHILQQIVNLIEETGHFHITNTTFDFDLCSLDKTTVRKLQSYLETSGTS
HNF4A DNA FP – change in binding of human HNF4 alpha to DNA. actives 0.3% (n = 360,000). P41235. activity change, % at 10 µM. HNF4a-FITC DNA binding, fluorescence polarization, 1 h. AID 1224865; in the data active = activity change above about 30%, passing the limit was not always enough;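 note: controls were the assay level and a saturating level of protein; the project sought stronger binding though the title names inhibitors; some compounds called inactive have numbers as strong as hits; positive values seem to mean higher polarization but the record does not say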
RanGTP-Impb inh – disruptors of Ran-importin-beta complex formation – biochemical, FRET, CFP-Ran, YFP-importin-beta, homogeneous, primary screen; inhibition, % (no concentration beside the values); actives 1.1% (n = 300,000); cell-free CFP-Ran/YFP-importin-beta FRET ratio;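 active = most replicates above 15%; inconclusive = exactly half above 15%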;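 note: 0% = DMSO wells and 100% = Ran loaded with GDP instead of GTP; wells of about 40 µL received 100 nL stock; the first replicate is given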
E coli growth – E. coli growth inhibition; OD600 absorbance (concentration not given with the values); Escherichia coli growth, OD600, 23 h; hits give low values; actives 0.21% (n = 330,000);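 active = OD600 absorbance below the run mean of sample wells minus 3.6 SD, in any replicate, cut at about 0.56 in these data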;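 note: stock transfer was 300 nL into about 60 µL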
UCH37 inh – human UCH37 deubiquitinating enzyme inhibition; purified proteasome/UCH37, Ub-AMC cleavage fluorescence; inhibition, % (no concentration beside the values); actives 0.33% (n = 330,000); AID 588478;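 active = mean of two replicates above 20%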;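 note: 0% = compound-free wells with enzyme and 100% = wells lacking proteasome; stock transfer was 100 nL into about 20 µL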
Target sequence (Q9Y5K5 whole entry, looked up): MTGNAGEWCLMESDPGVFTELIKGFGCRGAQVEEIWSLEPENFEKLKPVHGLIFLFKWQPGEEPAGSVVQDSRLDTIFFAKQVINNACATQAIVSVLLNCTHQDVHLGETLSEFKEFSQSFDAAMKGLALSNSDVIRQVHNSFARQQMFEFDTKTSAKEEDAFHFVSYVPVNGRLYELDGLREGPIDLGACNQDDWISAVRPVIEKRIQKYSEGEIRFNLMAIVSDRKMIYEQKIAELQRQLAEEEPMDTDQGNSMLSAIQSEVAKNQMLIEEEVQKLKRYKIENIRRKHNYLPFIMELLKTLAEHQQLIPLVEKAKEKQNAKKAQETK
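Assay system: Proteasome-bound UCH37. Buffer or medium: pH 7.4 Tris-HCl (50 mM) with ovalbumin, ATP-MgCl2, DTT. Incubation: 30 min preincubation with enzyme, 25 min cleavage at room temperature. Measured by: fluorescence, ex 355 nm, em 460 nm. Read-out basis: percent inhibition. Control set: wells without proteasome as full block, compound-free enzyme plus substrate as uninhibited.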
The depositor's hits bear a star; i = inactive; ? = inconclusive; / = not tested or not shown; & = joins results of further samples.

nr	structure	AF4-AF9 inh	RanGTP-Impb inh	Vif TR-FRET	E coli growth	UCH37 inh	FGF22 binding	HNF4A DNA FP
1	Cc1c(C(=O)O)cccc1-c1ccc(/C=C2\SC(=O)NC2=O)o1	-1.0	6.8	/	0.696	11.6	i	-10.2
2	CC1CC(C)CN(CCCNC(=O)c2csc3c2CCCCC3)C1 (centres undefined)	-3.7	1.3	/	0.703	0.0	i	-1.6
3	Cc1cc(C)cc(NC(=O)CCN2C(=O)c3ccccc3S2(=O)=O)c1	1.0	2.5	/	0.705	-5.2	i	1.6
4	Cc1[nH]n(-c2ccccc2)c(=O)c1C=Nc1ccc(S(N)(=O)=O)cc1	-0.4	-1.0	-1.8%	0.72	7.9	i	3.0
5	Cn1nnc2cc(C(=O)NCc3ccc4c(c3)OCO4)ccc21	/	-2.0	12.5%	0.725	0.4	/	-0.6
6	CC(=O)c1ccc(NC(=S)N2CCN(CCN3C(=O)c4cccc5cccc(c45)C3=O)CC2)cc1	2.3	-1.2	/	/	/	i	-0.7
7	Brc1cc2c(cc1/C=N/Nc1nc(N3CCCC3)nc(N3CCOCC3)n1)OCO2	/	2.4	8.5%	/	/	/	2.3
8	CN(Cc1ccccc1)S(=O)(=O)c1ccc2c(c1)n(C)c(=O)c(=O)n2C	-0.2	0.2	/	0.665	-12.3	i	2.1
9	O=C(Nc1nnc([C@H]2C[C@H](O)[C@@H](CO)O2)s1)c1cccc(Oc2ccccc2)c1	-6.8	/	/	/	/	i	4.4
10	Cc1nn(C)c(C)c1CN(C)C(=O)c1cc2n(n1)C(C(F)(F)F)CC(c1cccs1)N2 (centres undefined)	/	-1.6	14.0%	0.673	2.1	/	0.0
11	CCOC(=O)c1c(C)oc2c1c(C=NC1CCS(=O)(=O)C1)c(O)c1ccccc12 (centres undefined)	/	2.4	?	0.706	6.4	/	-1.4
12	CCN(CCC(=O)O)c1ccccc1	/	2.2	22.9%	0.678	2.7	/	-1.2

Molecules above containing a COOH group (two):
nr	structure	AF4-AF9 inh	RanGTP-Impb inh	Vif TR-FRET	E coli growth	UCH37 inh	FGF22 binding	HNF4A DNA FP
1	Cc1c(C(=O)O)cccc1-c1ccc(/C=C2\SC(=O)NC2=O)o1	-1.0	6.8	/	0.696	11.6	i	-10.2
12	CCN(CCC(=O)O)c1ccccc1	/	2.2	22.9%	0.678	2.7	/	-1.2

(cont.)
nr	structure	AF4-AF9 inh	RanGTP-Impb inh	Vif TR-FRET	E coli growth	UCH37 inh	FGF22 binding	HNF4A DNA FP
13	COc1ccccc1N1CCN(c2cc(C)nc3nc(C)nn23)CC1	-1.2	-2.8	26.4%	0.691	1.2	i	5.7
14	CCC(C)NC(=S)N(Cc1cc2cc(C)ccc2n2nnnc12)CC(C)(C)NC(C)C (centres undefined)	-0.1	2.2	/	0.619	0.3	i	3.4
15	CCOc1ccc2c3c(c(=O)oc2c1OCC)CCCC3	/	4.3	-5.4%	0.673	-24.7	/	1.4
16	O=C1C(=O)N(CCOCCO)C(c2ccccn2)/C1=C(\O)c1ccccc1 (centres undefined)	/	?	17.6%	0.714	6.6	/	-1.6
17	Cc1ccc(-c2nnc(Cc3ccc(Cl)cc3)o2)cc1	-3.9	1.9	0.0%	0.745	4.7	i	0.9
18	CCN(C(=O)Cn1nc(C)c([N+](=O)[O-])c1C)c1c(N)n(Cc2ccccc2)c(=O)[nH]c1=O	-1.3	2.4	-2.2%	0.66	0.5	i	3.0
19	CCCN1CN(Cc2ccccc2)CNC1=S	/	4.4	1.4%	0.671	-0.1	/	-4.7
20	Cc1ccc(C(=O)NNC(=O)c2cccnc2SCc2cccc([N+](=O)[O-])c2)cc1	/	-0.6	/	0.666	2.6	/	2.8
21	CCN1C(=O)/C(=C\N2CCN(c3ccccc3)CC2)SC1=S	/	-1.9	-62.9%	/	2.0	/	-0.2
22	Cc1cccc(CCN2CCN=C2N(C)C)c1	-59.5	/	/	0.69	2.4	i	-2.4
23	Cn1cnnc1SCc1ccc(C#N)cc1	/	-0.3	3.5%	0.766	5.5	/	-2.3
24	C(#CCN1CCOCC1)COCCCOC(c1ccccc1)c1ccccc1	/	0.3	4.6%	0.688	2.0	/	2.5
25	CCOc1cc(C2C(C#N)=C(N)SC(N)=C2C#N)ccc1OCCN1CCOCC1	/	?	-10.6%&-3.1%	0.685	3.0	/	3.9
26	O=C(C1CCOCC1)N1CCCC(N2CCN(c3cccc(Cl)c3)CC2)C1 (centres undefined)	-1.8	-1.3	-2.4%	0.661	3.2	i	-2.9
27	CC(=O)COC(=O)C1CC(=O)N(c2ccc(C)c(C)c2)C1 (centres undefined)	-2.9	0.2	31.9%	0.677	2.2	i	1.1
28	O=C(Cc1c(F)cccc1Cl)OCN1C(=O)c2ccccc2C1=O	0.8	7.4	-11.6%	0.703	2.5	i	5.7
29	O=C(COc1ccc(S(=O)(=O)NCc2ccccc2)cc1)NCc1cccnc1	0.0	1.6	/	0.713	6.8	i	3.1
30	COc1ccc(CNC(=O)c2cnc3scc(C)n3c2=O)cc1	-6.7	-3.2	30.3%	0.719	-37.0	i	0.9
31	Cc1ccc(C)c(N2CCN(CCCNC(=O)Cn3cccc3C(=O)c3ccccc3)CC2)c1	17.3	4.4	-2.4%	0.678	1.3	i	-0.5
32	CCc1nc2ccccc2n1CC(=O)Nc1cc(C)on1	-1.9	1.4	9.3%	0.664	4.2	i	-1.4
33	O=C(/C=C/c1cccs1)NCc1cccs1	/	0.5	/	0.582	4.9	i	2.2
34	NC(=O)/C(=N\OC(=O)c1ccco1)c1nc(-c2ccc(Br)cc2)cs1	/	4.9	-2.4%	/	/	/	-2.8
35	CNC(=S)NNC(=O)c1sccc1OCc1ccccc1	/	0.0	-3.2%	0.706	4.0	/	-0.7
36	CC(=O)N1CCc2c(sc(NC(=O)C3CCN(S(=O)(=O)c4cccs4)CC3)c2C(N)=O)C1	-1.1	?	-2.8%	0.677	0.3	/	5.2

Down the list, as entered above:
Compounds 26–32 in RanGTP-Impb inh: -1.3, 0.2, 7.4, 1.6, -3.2, 4.4, 1.4

(continued)
nr	structure	AF4-AF9 inh	RanGTP-Impb inh	Vif TR-FRET	E coli growth	UCH37 inh	FGF22 binding	HNF4A DNA FP
37	CCCC(=O)N1CCC1(C)C(=O)NCc1ccc(SC)cc1 (centres undefined)	-1.1	/	/	/	/	i	1.1
38	COc1cccc(CSc2nc(N)cc(N)n2)c1	7.5	8.3	3.0%	0.674	3.9	i	0.3
39	Cc1ccc(NC(=O)CSc2nnc(Cn3c(=O)sc4ccccc43)n2C)cc1Cl	-1.3	-1.5	12.2%	0.672	4.3	i	-1.3
40	COC(=O)CSC(=S)N1C(C)CCCC1C (centres undefined)	-1.9	-1.5	-8.1%	0.639	1.2	i	3.4
41	Cc1cc(Nc2ccc(F)cc2C)n2nc(C)nc2n1	-3.4	-0.8	?	0.683	3.8	i	4.0
42	CCCCN(C)C(=O)c1sc(=O)n(Cc2ccccc2C#N)c1C	1.3	/	/	/	/	i	-1.2
43	Cn1cnnc1SCC(=O)c1c(N)n(Cc2ccccc2)c(=O)n(C)c1=O	-13.0	1.3	-2.6%	0.677	1.4	i	4.3
44	COc1ccc(NC(=O)CSc2nnc(-c3ccco3)c(-c3ccco3)n2)cc1OC	-0.2	3.1	/	0.669	11.3	i	-0.7
45	Cc1c(N=CN2CCOCC2)c(=O)n(C)c(=O)n1C	/	1.8	13.5%	0.795	3.6	/	2.6
46	C=CCOc1ccc(/C=N/NC(=O)CC(=O)NC2CCCCC2)cc1	-6.3	-2.2	/	/	/	i	0.3
47	Cc1ccc(OCC(=O)c2ccc(Cl)s2)c([N+](=O)[O-])n1	-0.2	?	?	0.712	-1.1	i	-2.6
48	COc1ccc(NS(=O)(=O)c2ccc3oc(=O)ccc3c2)cc1	2.2	-0.7	/	0.667	2.5	i	-1.6
49	O=C(NCc1ccccn1)c1ccc2c(=O)n3nc(Nc4ccccc4)sc3nc2c1	0.1	3.1	/	0.697	-68.6	i	3.1
50	COc1cc(C(=O)OCC(=O)NCCC2=CCCCC2)ccc1OCC(C)C	0.4	-0.8	-4.1%	0.666	2.5	i	-2.6
51	COC(=O)CSc1ncnc2c1cnn2-c1ccc(C)cc1C	-3.9	-2.1	4.8%	/	/	i	3.5
52	Cc1nc2ccc(C(=O)NCCCn3ccnc3)cn2c1N(C)CC1CCCCC1	8.9	/	/	/	/	i	0.4
53	CC1=C(C(=O)Nc2ccccc2)C(c2ccc(N(C)C)cc2)NC(=O)N1 (centres undefined)	/	-27.3	8.6%	0.691	-1.3	/	3.1
54	CC(=O)Nc1ccc(Oc2ccc(S(=O)(=O)N3CCCC3)cn2)cc1	1.1	/	/	0.709	-0.5	i	-2.3
55	Fc1ccc(CNC(=S)NC2CCCC2)cc1	-0.6	2.6	-7.2%	0.675	3.4	i	2.7
56	CCCN(C(=O)CSc1ncnc2sccc12)c1c(N)n(Cc2ccccc2)c(=O)[nH]c1=O	1.6	/	/	/	/	i	1.2
57	COc1ccc(C2NC(=O)C(C#N)=C(S)N2c2cccc(C)c2)cc1OC (centres undefined)	-6.7	-4.5	13.4%	0.654	5.2	i	1.2
58	COc1ccc(NC(=O)CC(C)CC(=O)NCc2ccccc2)c(OC)c1 (centres undefined)	3.5	-0.8	?	0.656	-2.1	i	-2.6
59	COc1ccc(C(=O)O)cc1NC(=S)NC(=O)C(c1ccccc1)c1ccccc1	2.3	-5.3	/	0.679	5.7	i	1.3
60	CC(C(=O)NC1CCS(=O)(=O)C1)N1C(=O)/C(=C/c2ccc(Cl)cc2)SC1=S (centres undefined)	-0.1	-2.0	/	0.68	8.7	i	3.5
61	CCOC(=O)[C@]12CCC=C1N(Cc1cccc3ccccc13)C(=O)[C@H](CC(=O)NCCC(C)C)C2	1.5	/	/	/	/	i	2.7
62	CCN(CC)S(=O)(=O)c1cc(NC(=O)c2ccccc2OCc2c(C)noc2C)ccc1C	2.0	/	/	0.684	0.1	i	8.5
63	CC(O)(c1ccc(F)c(F)c1)c1nc(-c2ccc(Cl)cc2)cs1 (centres undefined)	-7.8	/	/	/	/	i	1.6
64	CC(=C/C(=O)O)/C(=C/c1ccccc1)C(=O)O	/	4.6	/	0.675	1.9	/	-1.6
65	COc1ccc(N=C2SC(CC(=O)Nc3ccccc3)C(=O)N2Cc2ccccn2)cc1 (centres undefined)	3.2	-0.8	3.0%	0.701	2.7	/	5.8
66	COc1ccccc1NS(=O)(=O)c1cccc(C(=O)NCC(c2ccc(F)cc2)N2CCOCC2)c1 (centres undefined)	1.0	-1.0	-3.4%	0.651	0.8	i	-1.0
67	CCn1c(SCC(=O)NCc2ccco2)nc2c(c1=O)SC(C)C2 (centres undefined)	/	0.6	5.0%	0.704	5.6	/	-3.1
68	O=c1[nH]c(N/N=C/c2cc3c(cc2[N+](=O)[O-])OCO3)nc2ccccc12	2.4	5.9	8.2%	/	/	i	4.6
69	COc1ccc(CCN(C)S(=O)(=O)c2ccc(Cl)nc2)cc1OC	6.2	4.3	/	0.683	0.7	i	0.0
70	ON1C2CCCCC2N(O)C1c1c(F)c(F)c(F)c(F)c1F (centres undefined)	/	-1.9	21.7%	0.746	1.7	/	1.9
71	CCOC(=O)CSc1nc(C(C)C)nc2ccccc12	/	-0.7	-0.9%	0.734	1.8	/	0.5
72	CCCC[N+](CC#Cc1ccccc1)(CCCC)CCCS(=O)(=O)[O-]	-1.5	-3.4	-2.0%	0.729	4.4	i	0.9
73	COc1ccc(OCC(=O)NCCc2ccc(S(N)(=O)=O)cc2)cc1	/	-0.7	0.7%	0.684	1.6	/	0.3
74	COc1ccccc1NC(=O)C(C)OC(=O)C1CCC(C(C)(C)C)CC1 (centres undefined)	-5.8	3.8	-1.2%	0.653	2.0	i	0.1

Screens as filed in PubChem BioAssay.

These rows are one share of the data; the hit share may differ from the screen's.
